RanGTP-Impb inh: inhibitors of RanGTP-importin-beta interaction, primary screen, biochemical, FRET, CFP-Ran, YFP-importin-beta, homogeneous. cell-free CFP-Ran/YFP-importin-beta FRET ratio. inhibition, % (no concentration beside the values). 300,000 tested, 1.1% active;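 active = most replicates above 15%; inconclusive = exactly half above 15%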;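 also: 0% = DMSO wells and 100% = Ran loaded with GDP instead of GTP; wells of about 40 µL received 100 nL stock; the first replicate is given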
ALR H2O2 inh: inhibitors of human sulfhydryl oxidase ALR | P55789 | purified ALR, DTT oxidation, H2O2 HRP-luminol luminescence | inhibition, % (no concentration beside the values) | 290,000 tested, 3.8% active | AID 485317;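 active = mean and each replicate at 75% or more; inconclusive = only one of the two met; inactive = neither met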;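 also: stock transfer was 7.5 nL into about 7.5 µL; 0% = neutral wells and 100% = wells with inactivated enzyme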
Target sequence (P55789 whole entry, looked up): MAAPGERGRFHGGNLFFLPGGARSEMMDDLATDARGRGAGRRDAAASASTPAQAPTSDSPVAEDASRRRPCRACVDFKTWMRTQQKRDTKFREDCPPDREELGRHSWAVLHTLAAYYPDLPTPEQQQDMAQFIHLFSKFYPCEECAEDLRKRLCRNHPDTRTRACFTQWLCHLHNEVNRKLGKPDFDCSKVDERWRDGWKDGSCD
HNF4A DNA FP: change in binding of human HNF4 alpha to DNA | AID 1224865 | activity change, % at 10 µM | HNF4a-FITC DNA binding, fluorescence polarization, 1 h | P41235 | 360,000 tested, 0.3% active; in the data active = activity change above about 30%, passing the limit was not always enough;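 also: controls were the assay level and a saturating level of protein; the project sought stronger binding though the title names inhibitors; some compounds called inactive have numbers as strong as hits; positive values seem to mean higher polarization but the record does not say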
Target sequence (P41235 whole entry, looked up): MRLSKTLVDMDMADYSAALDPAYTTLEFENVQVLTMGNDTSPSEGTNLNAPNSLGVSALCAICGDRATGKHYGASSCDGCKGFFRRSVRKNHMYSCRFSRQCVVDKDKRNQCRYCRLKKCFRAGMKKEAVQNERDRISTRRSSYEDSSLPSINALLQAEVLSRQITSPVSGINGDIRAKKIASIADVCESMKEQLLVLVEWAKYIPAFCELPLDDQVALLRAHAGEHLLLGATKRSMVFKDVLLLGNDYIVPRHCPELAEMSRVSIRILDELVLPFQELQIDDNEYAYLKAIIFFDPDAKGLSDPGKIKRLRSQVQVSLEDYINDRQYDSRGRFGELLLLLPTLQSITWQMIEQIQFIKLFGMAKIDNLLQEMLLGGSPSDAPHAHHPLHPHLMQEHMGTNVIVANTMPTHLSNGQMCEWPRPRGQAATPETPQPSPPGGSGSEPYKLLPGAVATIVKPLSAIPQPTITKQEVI
B2AR ag: human beta-2 adrenergic receptor agonism by FAP; P07550; 340,000 tested, 0.43% active; Am2.2-beta2AR cells, FAP receptor internalization, flow cytometry; reference of the scale not given here; response, % (concentration not given with the values);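 active = response above a set limit, near 3 SD of response in nonfluorescent compounds, cut at about 42% in these data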;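 also: stock transfer was 100 nL into about 11 µL; a reference agonist was the positive control; negative values mostly stem from fluorescent compounds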
Target sequence (P07550 whole entry, looked up): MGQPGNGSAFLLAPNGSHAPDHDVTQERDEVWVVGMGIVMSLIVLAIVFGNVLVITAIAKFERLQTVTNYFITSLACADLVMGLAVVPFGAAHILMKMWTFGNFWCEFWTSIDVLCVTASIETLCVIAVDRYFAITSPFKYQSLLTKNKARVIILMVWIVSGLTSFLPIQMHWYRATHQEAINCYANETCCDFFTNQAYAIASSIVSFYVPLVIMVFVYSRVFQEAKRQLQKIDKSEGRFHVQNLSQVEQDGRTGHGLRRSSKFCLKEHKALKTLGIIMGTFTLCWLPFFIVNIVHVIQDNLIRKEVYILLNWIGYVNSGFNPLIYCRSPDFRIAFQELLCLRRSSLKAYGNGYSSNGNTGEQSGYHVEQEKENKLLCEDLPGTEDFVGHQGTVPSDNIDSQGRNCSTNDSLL
Vif TR-FRET: HIV-1 Vif–A3G interaction blockers – biochemical, TR-FRET, GST-Vif 1-94, biotin-A3G peptide, dose response retest, primary screen (AID 1117319). TR-FRET GST-Vif / biotin-A3G peptide binding; higher % means a stronger effect; test concentration not given here; strong numbers were not always called active. one-dose inhibition, %; IC50 in µM for titrated hits. 260,000 tested, 0.57% active;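 active = above the screen mean plus three standard deviations and confirmed in dose response; inconclusive = results disagree or hit not tested in dose response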;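 also: Vif residues 1-94 fused to GST binding biotinylated APOBEC3G peptide 110-148; 0% = full assay without inhibitor and 100% = GST in place of GST-Vif; retest series ran down from 100 µM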
LANA-H2A inh: blocks KSHV LANA binding to histone H2A/H2B | cell-free LANA-H2A/H2B peptide, fluorescence polarization | inhibition, % (concentration not given with the values) | 320,000 tested, 0.6% active; in the data active = inhibition mostly above about 10%, no sharp cut-off; inactive = mostly below about 6.7%;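 also: stock transfer was 7.5 nL into about 10 µL; 0% = median of vehicle wells and 100% = median of positive control wells; one replicate is shown; the record names a cut of 25% in any replicate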
Calb FLC: affects C. albicans growth with fluconazole; AID 1979; 300,000 tested, 0.57% active; growth inhibition, % (no concentration beside the values); C. albicans CaCi-2 (fluconazole-resistant clinical isolate) + fluconazole, Alamar Blue growth, 48 h;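 active = most replicates above 75%; inconclusive = exactly half above 75%; inactive = most below 75%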;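 also: all wells also contain fluconazole at 8 µg/ml as a sub-toxic cotreatment; 0% = median of DMSO wells and 100% = median of geldanamycin control wells; wells of about 8 µL received 7.5 nL stock; the first replicate is given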
The depositor's hits bear a star; u = inconclusive; x = not tested or not shown.

SMILES | RanGTP-Impb inh | ALR H2O2 inh | HNF4A DNA FP | B2AR ag | Vif TR-FRET | LANA-H2A inh | Calb FLC
N#CCCN(C(=O)COC(=O)C1CCN(S(=O)(=O)c2ccc3c(c2)OCCO3)CC1)c1ccccc1 | 0.2 | -3 | 0.0 | 1 | -9% | 3.8 | x
Cc1ccc([C@H]2C(C(=O)O)=CC[C@@H](c3ccc(C(C)C)cc3)N2S(=O)(=O)c2ccc(C)cc2)cc1 | x | 13 | -5.1 | 9 | 12% | x | x
O=C(Cc1cccs1)Nc1cccc(-c2ccc3nncn3n2)c1 | 6.7 | -4 | 1.2 | 4 | 14% | 1.6 | 4
CN(C)c1ccc(S(=O)(=O)NCC(=O)N2CCN(c3ccccc3)CC2)cc1[N+](=O)[O-] | 1.4 | 13 | -4.3 | 8 | 5% | -0.3 | -5
Cc1ccc(-c2cc(-c3ccco3)c(C#N)c(=O)[nH]2)cc1 | -45 | 8 | 37 | 17 | u | 8.2 | 2
CS(=O)(=O)N(CC(=O)N1CCN(Cc2ccccc2)CC1)c1cccc(Cl)c1 | u | -1 | -3.3 | -8 | 1% | -1.4 | 2
Cc1ccc(C2(O)CN(c3ccccc3)C3=[N+]2CCS3)cc1 (centres undefined) | 0.2 | 5 | 1.7 | -2 | x | 0.2 | -14
CCOC(=O)C1=C(C)NC(C)=C(C(=O)OCC)C1C(=O)OCC(=O)NCc1ccccc1 | x | -17 | 1.4 | 7 | -1% | -1.4 | x
Cc1ccc(S(=O)(=O)Nc2ccc3cc([N+](=O)[O-])ccc3c2[N+](=O)[O-])cc1 | x | x | 17 | 10 | -7% | x | x
COc1ccc(-c2csc(NC(=O)CSc3nc(C)nc4sc(C(=O)O)c(C)c34)n2)cc1 | 1.5 | 99* | -0.8 | 14 | 2% | -6.2 | -9
O=C(Cc1c[nH]c2ccccc12)N1CCN(S(=O)(=O)c2ccc(Cl)cc2)CC1 | x | x | 0.4 | 2 | 1% | x | x
CSc1nc(=O)n(-c2ccccc2)c(C)c1C(C)=O | 0.6 | -6 | 4.5 | -1 | 6% | -0.4 | 10
COc1ccc(Cn2nnnc2C(c2ccccc2Cl)N2CCN(C3CCCC3)CC2)cc1 (centres undefined) | -1.1 | x | -6.3 | 11 | 2% | x | 5
Cc1cc(C)n2[nH]c(=O)c(N=Nc3ccccc3)c2n1 | -5.5 | 5 | -0.7 | -2 | -2% | -0.8 | -1
OCCCNc1nc(-c2ccccc2)c2cc(Cl)ccc2n1 | 51* | -2 | -1.9 | -11 | x | -0.8 | 14
CCCCn1c(-c2sccc2C)n[nH]c1=S | -6.3 | -5 | -0.6 | 1 | 5% | -1.1 | 51
Cc1c(C#N)c(O)n(CCO)c(=O)c1N=Nc1ccc(S(N)(=O)=O)cc1 | u | -8 | 8.3 | 0 | x | -8.7 | 19
CCN(CC(=O)Nc1ccccc1C(F)(F)F)C(=O)CCOc1ccccc1C | 0.4 | 1 | -0.9 | -4 | 4% | 0.7 | -3
Fc1c(F)c(F)c(NC2=NCCCCC2)c(F)c1F | 2.6 | -2 | 0.1 | -2 | 2% | -1.1 | -10
O=c1c2ccccc2ncn1/N=C/c1ccccc1 | 3.4 | -11 | 3.3 | -3 | x | 0.6 | 3
O=C(Nc1ccc(N2CCOCC2)c(Cl)c1)c1cccc(F)c1 | x | -6 | -1.5 | 13 | 5% | -4.2 | x
Nc1nc(-c2ccc(Cl)cc2)nn1C(=O)c1ccco1 | 2.8 | 75 | -0.4 | 7 | 19% | -1.6 | 21
COc1ccccc1C(=O)NCCCNC(=O)c1cccnc1 | 1.0 | 0 | -2.8 | 1 | x | -3.4 | 28
CCOC(=O)/C=C1\SCC(=O)N1CC(=O)NCCc1ccc(F)cc1 | -0.1 | -3 | 2.5 | 6 | 1% | -1.2 | 4
CCOc1cc(C(=O)N=c2sccn2C)ccc1OC(F)F | 1.6 | 6 | -5.8 | -8 | x | 20* | 21
CN(C)C(CNC(=O)c1cc2ccccc2oc1=O)c1ccccc1 (centres undefined) | -2.0 | -1 | 0.6 | -21 | x | 0.2 | -3
Cc1ccc(SC(C)C(=O)NC(N)=O)c(C)c1 (centres undefined) | -4.5 | -20 | -4.1 | 3 | x | 0.4 | -32
COC1(NC(=O)c2ccccc2)C(C)=CC(=O)C=C1C | 2.6 | -4 | -1.8 | 2 | 9% | -3.5 | -3
COc1cc(NC(=O)c2ccco2)c(OC)cc1NC(=O)Nc1ccc(Cl)cc1 | u | -8 | -2.6 | -8 | 5% | -3.5 | 0
Cc1cccc(CN(C(=S)Nc2c(C)cccc2C)c2cccnc2)c1 | -2.6 | 22 | -2.3 | -5 | x | 0.6 | 2
CCn1c(N)c(C(=O)COC(=O)CCc2nc3ccccc3c(=O)[nH]2)c(=O)[nH]c1=O | x | -1 | 6.1 | -7 | 0% | -4.4 | x
Cc1ccc(S(=O)(=O)NCCCOC(=O)Nc2ccncc2)cc1 | -0.1 | -14 | -2.0 | 1 | 67% | 2.0 | -8
CC1Cc2ccccc2N1S(=O)(=O)c1cccc2nsnc12 (centres undefined) | 4.5 | -8 | -2.9 | 16 | 5% | 5.3 | 16
CC(C)N(Cc1ccccc1)C(=S)Nc1cccnc1 | 1.1 | x | 7.7 | -5 | -3% | 3.6 | -8
CCc1ccc(NC(=O)C2CCCN2c2nn3c(=O)cc(C)nc3s2)cc1 (centres undefined) | -1.0 | -9 | -2.8 | -10 | x | -2.2 | -2
CCCc1c(O)nc(SC2CC(=O)N(c3ccc(C)c(Cl)c3)C2=O)[nH]c1=O (centres undefined) | 1.4 | 7 | -2.4 | -4 | x | -4.9 | -5
COc1ccc(CN2CCC(C)CC2)cc1OCc1ccccc1 | -3.7 | -1 | 3.2 | 4 | x | 3.6 | 4
NC(=O)[C@@H]1CCCNc2c(I)cc([N+](=O)[O-])cc2C(=O)N[C@@H](CO)C(=O)N[C@@H](Cc2ccc(O)cc2)C(=O)N1 | -3.4 | 15 | -0.5 | 6 | 17% | 8.8 | -3
O=S(=O)(c1ccc(F)cc1)N1CCN(Cc2ccccc2C(F)(F)F)CC1 | 4.5 | 1 | -2.5 | -11 | 19% | -1.4 | 15
O=C(COC(=O)c1cccc(-n2cnnn2)c1)c1ccccc1 | -3.0 | -8 | 1.8 | -5 | -1% | 5.1 | 3
Clc1nnc2ccc(-c3ccccc3)nn12 | 1.8 | -1 | -0.8 | 10 | u | -0.7 | -7
CCCCN(C)Cc1c(O)ccc2c(-c3ccccc3)cc(=O)oc12 | 3.6 | -8 | 1.8 | -13 | 2% | -1.2 | 1
CCOCCCNC(=O)C(NC(=O)c1ccc(=O)[nH]c1)c1ccc(Cl)cc1 (centres undefined) | -4.9 | 7 | -3.8 | 12 | 0% | -4.7 | -6
O=C(Nc1ccc2c(c1)OCCO2)c1ccccn1 | -1.5 | -1 | 3.6 | -1 | -9% | 3.2 | -21
Cc1ccc(OCC(=O)Nc2ccccc2F)cc1 | 0.8 | -16 | 0.3 | -1 | x | 2.2 | -3
CC(O)CN(Cc1cccc(Cl)c1)CC(C)O (centres undefined) | x | x | -1.1 | 9 | 16% | x | -4
Fc1ccccc1OCCCn1ccnc1 | 1.1 | -1 | 2.5 | -7 | -3% | 0.9 | -5
CCOC(=O)c1c(NC(=O)c2cccs2)sc(C)c1CC | 2.7 | -3 | 1.9 | 11 | -1% | -6.6 | -14
Cc1ccccc1C(=O)c1cccn1CC(=O)NCCCN1CCCCC1 | -0.8 | 0 | 4.8 | -1 | -4% | 9.4 | 2
CCNC(=O)NC(=O)C(C)OC(=O)CCCc1nc2ccccc2s1 (centres undefined) | 0.6 | x | -2.4 | 6 | 22% | -2.9 | u
O=C(C1=C[C@@H](C2CC2)C[C@@H](OCc2ccc(CO)cc2)O1)N1CCN(Cc2ccccc2)CC1 | -2.0 | -12 | 2.2 | 19 | -5% | -6.6 | -21
COc1ccccc1N1CCN(S(=O)(=O)c2cc(C)sc2C)CC1 | -0.1 | x | 0.9 | 0 | 4% | -0.9 | 8
CCOc1cc(/C=C(\C#N)C(=O)Nc2ccccc2C(=O)O)ccc1OC(=O)c1ccc(C)cc1 | 0.7 | 6 | -0.8 | 7 | x | -2.6 | 19
O=C(Cn1nnc(-c2ccccc2F)n1)Nc1ccc(S(=O)(=O)NC2CCCC2)cc1 | 1.4 | -1 | -1.6 | 0 | -1% | -1.4 | u
CN(CC(=O)Nc1cccc(F)c1)C(=O)c1ccc(NC2CC2)c([N+](=O)[O-])c1 | 7.4 | -16 | -3.9 | 0 | 1% | 0.2 | 2
Cc1ccc(-n2nc3c(c2NC(=O)c2cccs2)CS(=O)(=O)C3)cc1C | u | -1 | 1.0 | 0 | x | 2.1 | -2
CCN(CC)S(=O)(=O)c1ccc(F)c(C(=O)NCCCN2CCOCC2)c1 | 1.9 | -5 | -1.4 | 4 | -5% | -3.1 | -5
COc1cc(C2SCC(=O)N2Cc2ccccc2)cc(OC)c1OC (centres undefined) | -2.1 | x | -0.2 | 0 | -1% | -0.7 | -7
CCC(CC)C(=O)Nc1cccc(-c2ccc3nncn3n2)c1 | 5.4 | -6 | -1.2 | -1 | -1% | -4.0 | 1
Cc1ccc(-c2ccc(SCC(=O)c3ccccc3)nn2)cc1 | -1.1 | -5 | 3.7 | -2 | x | 3.6 | 0

(continued)
SMILES | RanGTP-Impb inh | ALR H2O2 inh | HNF4A DNA FP | B2AR ag | Vif TR-FRET | LANA-H2A inh | Calb FLC
Cc1ccc(C(C(=O)NC2CCCCC2)N(C(=O)CCCC(=O)Nc2ccccn2)c2ccc3c(c2)OCCO3)cc1 (centres undefined) | 3.7 | 0 | 1.1 | 1 | 3% | 6.6 | 13
O=C(Nc1cccc(F)c1)C1CCCN(S(=O)(=O)c2ccccc2)C1 (centres undefined) | 0.9 | -1 | -1.1 | -4 | x | 1.3 | -4
CC1(C)CN(c2ccc(F)cc2)C1=O | 3.4 | 4 | 1.2 | 0 | u | 4.8 | 22
O=C1NC(=Nc2ccccc2)S/C1=C\c1cccs1 | 3.3 | 3 | -2.9 | -4 | 7% | 2.4 | -1
CCC(=O)Nc1cccc(NC(=O)c2cc3ccccc3o2)c1 | u | 7 | -1.0 | -7 | 21% | -1.1 | -2
O=C(O)/C=C/c1coc2ccccc2c1=O | 35* | x | 1.1 | -3 | x | 2.5 | 5
CS(=O)(=O)NCCn1ccc2ccccc21 | 1.7 | -4 | -0.6 | -3 | 2% | 0.7 | 0
CC(C)(C)C1CCC2(CC1)Nc1cccc3cccc(c13)N2 | -3.9 | x | 20 | 4 | -1% | -0.6 | 36
CCOC(=O)N/N=C/c1cn(CCCOc2ccc(C)cc2)c2ccccc12 | -1.3 | -1 | 0.7 | 71* | x | 1.4 | 0
CN(CCOc1ccc(Cl)cc1)C(=O)c1ccc2c(=O)n3c(nc2c1)CCC3 | 1.4 | -2 | -3.9 | -2 | -1% | 0.3 | 6
COc1ccc(-c2c(C)nc(N)nc2-c2ccc(OCc3ccc(C)cc3)cc2O)cc1OC | 0.1 | -10 | 1.9 | 14 | -191% | -3.8 | -12
CC(C)(C)c1csc(NC(=O)c2ccncc2)n1 | -0.9 | -1 | 1.2 | -9 | x | 1.1 | 0
C/C(=N/NC(=O)CN1CCN(S(=O)(=O)c2ccc(Br)cc2)CC1)c1ccco1 | 4.2 | -14 | 2.1 | 9 | x | 2.4 | 1

Fetched by compound from the list above:
SMILES | RanGTP-Impb inh | ALR H2O2 inh | HNF4A DNA FP | B2AR ag | Vif TR-FRET | LANA-H2A inh | Calb FLC
Cc1ccc(C(C(=O)NC2CCCCC2)N(C(=O)CCCC(=O)Nc2ccccn2)c2ccc3c(c2)OCCO3)cc1 (centres undefined) | 3.7 | 0 | 1.1 | 1 | 3% | 6.6 | 13
CCOC(=O)N/N=C/c1cn(CCCOc2ccc(C)cc2)c2ccccc12 | -1.3 | -1 | 0.7 | 71* | x | 1.4 | 0
